# RanGTP-Impb inh = disruptors of Ran-importin-beta complex formation – biochemical, FRET, CFP-Ran, YFP-importin-beta, homogeneous, primary screen; cell-free CFP-Ran/YFP-importin-beta FRET ratio; 300,000 compounds, 1.1% hits; AID 2216; inhibition, % (test concentration not listed);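 active = most replicates above 15%; inconclusive = exactly half above 15%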;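 note: 0% = DMSO wells and 100% = Ran loaded with GDP instead of GTP; wells of about 40 µL received 100 nL stock; the first replicate is given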
# Bfl-1 A1 inh = inhibitors of the anti-apoptotic protein A1, read as caspase activation; MEF A1-2A-BIM cells, Caspase-Glo 3/7 luminescence, 3 h; percent of clofoctol response, vehicle zero; caspase activation, % (test concentration not listed); 330,000 compounds, 0.066% hits;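 active = over half of replicate activation scores above 10%, or exactly half above 10 with the replicate mean above 10; inconclusive = replicate mean below 10 yet half the replicates above 10; inactive = over half of replicates below 10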;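 note: wells of about 30 µL received 50 nL stock; many hits fall short of the cut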
# LANA-H2B inh = blocks KSHV LANA binding to histone H2A/H2B. Q9QR71. cell-free LANA-H2A/H2B peptide, fluorescence polarization. inhibition, % (no concentration beside the values). 320,000 compounds, 0.6% hits; in the data active = inhibition mostly above about 10%, no sharp cut-off; inactive = mostly below about 6.7%;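 note: stock transfer was 7.5 nL into about 10 µL; 0% = median of vehicle wells and 100% = median of positive control wells; one replicate is shown; the record names a cut of 25% in any replicate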
# Beta2AR agonist = activates human beta-2 adrenergic receptor causing internalization; response, % (no concentration beside the values); 340,000 compounds, 0.43% hits; P07550; Am2.2-beta2AR cells, FAP receptor internalization, flow cytometry; reference of the scale not given here;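 active = response above a set limit, near 3 SD of response in nonfluorescent compounds, cut at about 42% in these data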;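 note: stock transfer was 100 nL into about 11 µL; a reference agonist was the positive control; negative values mostly stem from fluorescent compounds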
# Target sequence (P07550 whole entry, looked up): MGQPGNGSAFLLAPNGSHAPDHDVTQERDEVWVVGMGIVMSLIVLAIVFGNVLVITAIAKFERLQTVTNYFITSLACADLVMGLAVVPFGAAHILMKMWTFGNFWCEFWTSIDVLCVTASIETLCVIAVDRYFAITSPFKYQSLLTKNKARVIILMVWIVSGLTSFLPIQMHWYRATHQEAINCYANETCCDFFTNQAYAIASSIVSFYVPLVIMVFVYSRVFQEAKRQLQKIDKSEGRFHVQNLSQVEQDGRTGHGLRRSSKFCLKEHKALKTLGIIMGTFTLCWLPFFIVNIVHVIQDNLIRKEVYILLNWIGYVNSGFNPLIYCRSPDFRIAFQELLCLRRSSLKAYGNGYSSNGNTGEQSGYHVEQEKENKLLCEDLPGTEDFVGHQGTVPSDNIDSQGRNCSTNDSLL
# Calb FLC = affects C. albicans growth with fluconazole; 300,000 compounds, 0.57% hits; AID 1979; C. albicans CaCi-2 (fluconazole-resistant clinical isolate) + fluconazole, Alamar Blue growth, 48 h; growth inhibition, % (no concentration beside the values);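 active = most replicates above 75%; inconclusive = exactly half above 75%; inactive = most below 75%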;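 note: all wells also contain fluconazole at 8 µg/ml as a sub-toxic cotreatment; 0% = median of DMSO wells and 100% = median of geldanamycin control wells; wells of about 8 µL received 7.5 nL stock; the first replicate is given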
# Beta apoptosis = beta cell apoptosis inhibition | protection from apoptosis, % (concentration not given with the values) | INS-1E cytokine-induced death, ATP luminescence, 48 h; percent of positive-control rescue, neutral wells zero | 300,000 compounds, 0.8% hits;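 active = all replicates at 75% or more, or half of them and the mean; inconclusive = half reach 75% but not the mean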;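 note: 0% = cytokine-treated negative control wells and 100% = positive control rescue; higher means more ATP so stronger rescue from cytokine killing; wells of about 40 µL received 100 nL stock; the first replicate is given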
# T cruzi inh = blocks replication of Trypanosoma cruzi; T. cruzi beta-gal in NIH3T3, luminescence, 90 h; 300,000 compounds, 1.4% hits; inhibition, % (concentration not given with the values); AID 1885;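 active = mean inhibition across valid replicates above about 55%, limit read from the data; inconclusive = mean below that limit but half or more replicates reach it; inactive = mean below it, under half of replicates reach it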;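 note: signal also drops with host cell toxicity which is not excluded here; 0% = plate median of DMSO wells and 100% = zero luminescence signal; higher percent means less beta-gal luminescence so fewer parasites; stock transfer was 50 nL into about 50 µL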
# UCH37 inh = blocks the human deubiquitinase UCH37; Q9Y5K5; purified proteasome/UCH37, Ub-AMC cleavage fluorescence; inhibition, % (no concentration beside the values); 330,000 compounds, 0.33% hits;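 active = mean of two replicates above 20%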;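 note: 0% = compound-free wells with enzyme and 100% = wells lacking proteasome; stock transfer was 100 nL into about 20 µL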
# Target sequence (Q9Y5K5 whole entry, looked up): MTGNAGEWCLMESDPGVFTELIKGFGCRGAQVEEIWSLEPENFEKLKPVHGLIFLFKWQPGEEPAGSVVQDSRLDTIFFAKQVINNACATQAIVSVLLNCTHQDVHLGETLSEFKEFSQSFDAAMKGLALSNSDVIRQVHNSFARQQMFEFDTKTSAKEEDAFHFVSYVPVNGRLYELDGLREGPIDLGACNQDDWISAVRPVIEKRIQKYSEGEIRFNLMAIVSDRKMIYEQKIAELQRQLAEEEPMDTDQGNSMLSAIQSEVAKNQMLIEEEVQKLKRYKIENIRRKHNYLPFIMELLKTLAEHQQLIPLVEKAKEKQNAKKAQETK
#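 Schedule: 30 min plus 25 min, room temperature / Material: human UCH37 within purified proteasomes / Technique: AMC fluorescence intensity at 355/460 nm / Buffer or medium: pH 7.4 Tris-HCl (50 mM) with ovalbumin, ATP-MgCl2, DTT / Controls: wells without proteasome as full block, compound-free enzyme plus substrate as uninhibited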
# Starred values were filed as active, the others as inactive; ? = inconclusive; nt = no result given. No enrichment for hits. About 4.3% of those tested had a hit in this group.
# Value order: Beta2AR agonist, RanGTP-Impb inh, Beta apoptosis, Calb FLC, Bfl-1 A1 inh, UCH37 inh, T cruzi inh, LANA-H2B inh
> Cc1ccc(NS(=O)(=O)c2ccc(NC(=O)c3ccccc3C(=O)O)cc2)c(C)c1
→ -1.6, -3.2, nt, 1.4, 0.6, 2.1, 63.7*, 1.9
> CCCCCC(=O)Nc1ccc(N2CCOCC2)c(S(=O)(=O)Nc2ccc(OC)cc2)c1
→ 5.7, 0.0, 10.0, 2.7, 0.0, 0.2, -10.9, -3.1
> Cc1ccccc1NC(=O)CSc1nnc(C)c(=O)[nH]1
→ 1.1, 5.1, -2.1, -5.2, -0.9, 2.2, 1.1, -1.6
> COc1ccc(-c2cc(=O)oc3c(C)c(OC(=O)c4cccs4)ccc23)cc1
→ 35.5, nt, 9.4, nt, 17.2*, -7.6, -10.4, -1.6
> Cc1cc(NC(=O)CSc2nc3ccccc3c(=O)n2C2CCCC2)no1
→ 14.4, 1.8, 16.1, -1.5, 0.3, 4.2, -11.1, -0.8
> COc1ccc(NC(=O)N(C)C[C@H]2Oc3c(NC(=O)c4nc5ccccc5s4)cccc3C(=O)N([C@@H](C)CO)C[C@H]2C)cc1
→ -11.7, nt, 10.1, nt, 0.3, -52.6, nt, 8.1
> Cn1c(Cn2c(=O)sc3ccccc32)nnc1SCC(=O)NCCc1ccccc1
→ -0.6, 5.4, -0.1, 6.1, -0.1, 1.9, 10.8, -5.5
> CCCCN(C)Cc1c(C)[nH]c2ccc(Cl)cc2c1=O
→ -4.8, 4.0, -4.6, -7.3, 0.1, 1.8, 11.6, 2.1
> COc1ccc(NC(=O)C2=CC(c3ccc(OC)cc3)=NS(=O)(=O)N2C)cc1
→ 2.8, -0.9, -2.5, 2.3, 0.8, 6.5, 1.1, 0.8
> C/C(=N\OCc1nc2ccccc2c(=O)n1/N=C/c1cc(C)cc([N+](=O)[O-])c1O)c1ccccc1
→ 6.0, 2.9, 10.6, -3.7, 0.7, nt, 45.7, 6.1
> Cc1ccc(-c2c[n+](CC(=O)Nc3nc(-c4ccccc4)cs3)c3n2CCC3)cc1
→ -3.9, 2.7, 25.0, 21.9, 0.3, 4.9, 3.7, 2.4
> O=C(O)CSC(C(=O)Nc1ccc(Br)cc1)c1ccccc1 (configuration not stated)
→ 3.5, 2.3, -2.3, 20.4, -0.5, 3.0, 2.9, 6.9
> COC(=O)c1cn(C(=O)c2ccc(C)cc2C)c2ccccc12
→ 22.4, -1.8, 27.9, -19.9, -0.1, 2.3, -29.6, -5.6
> CCN(CC1CCCN(CCc2cccc(OC)c2)C1)C(=O)c1ccoc1 (configuration not stated)
→ -1.5, -0.9, -4.5, 1.3, 0.2, 4.1, 33.0, -3.9
> CCN1CCN(S(=O)(=O)c2c[nH]c(C(=O)OC)c2)CC1
→ -10.9, 1.1, -0.2, 2.1, 0.6, 5.4, -13.7, 5.2
> COc1ccccc1NC(=O)c1ccc(Cl)c(S(=O)(=O)N2CCCCC2)c1
→ 0.7, 0.5, -1.4, -1.3, 0.9, 0.4, 12.1, -3.2
> COc1ccccc1-c1noc2ncnc(Nc3ccccc3C)c12
→ -9.9, 5.9, 2.1, 29.2, -0.4, 0.5, 4.4, -1.4
> Cc1ccc(S(=O)(=O)N2CCN(C(=O)c3ccccn3)CC2)c(C)c1
→ -2.1, -2.3, -8.4, -6.5, 0.1, 3.1, 9.1, 0.0
> O=C(c1ccc(O)cc1)c1ccc(O)cc1O
→ -1.4, -0.1, -1.5, -9.1, -0.6, 15.9, -1.8, 12.3*
> Cc1cccc(Cn2c(SCCO)nc3c2c(=O)n(C)c(=O)n3C)c1
→ -4.7, -1.4, 0.2, nt, -0.1, 0.0, 3.8, 0.8
> O=C(COc1ccc(/C=N/NC(=O)c2ccc(O)cc2)cc1)Nc1cccc([N+](=O)[O-])c1
→ 4.7, -1.1, -2.7, 2.8, 0.6, nt, 4.8, -2.5
> COc1cccc(C(=O)OCC(=O)NCC2CCCO2)c1 (configuration not stated)
→ -2.7, nt, -2.0, nt, 0.5, 0.6, nt, 4.9
> CCOC(=O)N/N=C/c1ccc(N(CC)CC)cc1O
→ 3.6, 3.5, nt, -0.4, -1.1, nt, -8.5, 2.6
> C=C1CCN(C(Cc2ccccc2)C(=O)OC)S(=O)(=O)c2ccc(F)cc21 (configuration not stated)
→ -7.4, ?, -6.5, -5.4, 0.4, 0.5, 9.5, 1.4
> COc1ccc2cc(CN(CC3CCCO3)S(=O)(=O)c3ccccc3Cl)c(=O)[nH]c2c1 (configuration not stated)
→ -3.0, ?, -5.6, 6.6, 0.0, -4.0, 8.5, -0.1
> COc1cc(CCCN2C(=S)NC[C@@H]2c2ccccc2)cc(OC)c1OC
→ -2.8, -1.9, -8.4, 4.6, 0.8, 3.3, 5.5, -11.4
> NC(=O)C1CCCN(C(=S)Nc2cccc3ccccc23)C1 (configuration not stated)
→ 3.9, ?, 0.8, 6.1, 0.0, 1.9, 1.2, 0.1
> O=C(c1ccc(Cl)cc1)N1CCN(C(=O)c2ccco2)CC1
→ -7.0, -0.2, -1.7, -5.0, 0.6, 5.6, -18.6, -4.6
> Cc1ccc(-c2nn(-c3ccccc3)cc2C(=O)N2CCOCC2)cc1C
→ -29.6, 3.9, -5.3, -17.3, 0.1, 1.3, 9.8, -5.1
> Cc1onc(-c2ccccc2Cl)c1C(=O)Nc1ccccc1C(N)=O
→ -1.9, -3.2, 4.2, -6.8, 0.7, 2.4, -3.6, -0.2
> COc1ccc(-c2c[n+]3c(n2-c2c(C)n(C)n(-c4ccccc4)c2=O)CCCCC3)cc1
→ 0.7, 2.4, -4.0, -31.4, 0.6, -1.9, -28.0, -0.8
> Cc1csc(C(=O)O)c1-n1cccc1
→ -7.8, -3.0, -5.5, -3.4, 0.1, 4.8, -8.9, 4.5
> CCC(C)(C)c1ccc(Oc2ccc(N)cc2)cc1
→ 29.2, -2.5, nt, -29.3, nt, 4.4, 12.1, nt
> COc1ccc(-c2cc(C(=O)Nc3c(C)nn(Cc4ccccc4Cl)c3C)no2)cc1OC
→ 6.2, nt, nt, nt, -0.7, 5.5, nt, 3.2
> COc1cccc(-n2cnc3sc(C)cc3c2=O)c1
→ 2.4, 0.8, -3.8, -22.9, -0.2, 2.8, -12.2, -1.5
> CSc1cccc(NC(=S)Nc2ccc(F)cc2)c1
→ 2.7, 7.5, 0.4, -12.8, -0.6, 3.0, -24.3, 3.4
> Cc1cc(OCC(=O)Nc2cc(S(=O)(=O)N3CCOCC3)ccc2N2CCCC2)ccc1C(C)C
→ 12.3, -4.7, 4.2, -8.3, -1.4, 1.1, 44.9, 1.0
> COc1ccc(O)c(-c2cc(C(F)(F)C(F)F)nc(-c3ccccc3)n2)c1
→ 4.6, -1.6, 1.0, -9.4, -0.4, -3.1, -4.3, -0.5
> CCOC(=O)C1=C(O)C(=O)NC(c2ccccc2)=C(OC2CCCCC2)C1
→ -2.7, -0.4, 1.1, -11.0, 0.6, -2.4, 5.5, nt
> Cn1c(N)c(C(=O)COC(=O)c2ccc([N+](=O)[O-])o2)c(=O)n(C)c1=O
→ -13.4, 1.4, -2.0, -8.9, 1.7, 16.1, 16.6, 2.4

# The last 3 records of the section before are carried over, then new ones follow.
# Value order: Beta2AR agonist, RanGTP-Impb inh, Beta apoptosis, Calb FLC, Bfl-1 A1 inh, UCH37 inh, T cruzi inh, LANA-H2B inh
> COc1ccc(O)c(-c2cc(C(F)(F)C(F)F)nc(-c3ccccc3)n2)c1
→ 4.6, -1.6, 1.0, -9.4, -0.4, -3.1, -4.3, -0.5
> CCOC(=O)C1=C(O)C(=O)NC(c2ccccc2)=C(OC2CCCCC2)C1
→ -2.7, -0.4, 1.1, -11.0, 0.6, -2.4, 5.5, nt
> Cn1c(N)c(C(=O)COC(=O)c2ccc([N+](=O)[O-])o2)c(=O)n(C)c1=O
→ -13.4, 1.4, -2.0, -8.9, 1.7, 16.1, 16.6, 2.4
> CC(C)(C)OC(=O)C(Cc1ccc(OC(C)(C)C)cc1)NC(=O)CNC(=O)CNC(=O)OCc1ccccc1 (configuration not stated)
→ -7.1, 4.5, -5.5, 2.7, 1.6, 1.8, 5.5, 1.2
> CN(C)CCCN(C(=O)c1ccc(Br)s1)c1nc2cc3c(cc2s1)OCCO3
→ 19.3, 22.5*, nt, -6.6, -1.9, 1.6, ?, 2.2
> Cc1ccc2c(c1)CCCN2C(=O)c1ccc2c(c1)OCO2
→ 6.5, 2.8, -2.6, 0.9, 0.6, 0.6, -8.1, 2.1
> COc1ccccc1OCc1ccc(C(=O)NN)o1
→ -5.2, 1.4, 1.5, -0.9, -0.6, 1.9, -7.5, -0.9
> COc1ccc(/C=N/N=C2\SC(CC(=O)O)C(=O)N2c2ccccc2)cc1 (configuration not stated)
→ 2.3, 8.3, -3.5, -0.1, 0.1, nt, -7.8, -2.3
> C=C(C)Cn1c(CCNC(=O)CCC)nc2ccccc21
→ -1.2, 2.0, 4.9, 0.5, -0.9, -0.1, -9.3, 5.8
> COc1ccc(C2=Nc3ccc(C)cc3C(c3ccccc3)N2CC(=O)NN)cc1 (configuration not stated)
→ -3.1, 2.1, nt, -8.8, 0.6, 0.9, -18.0, 3.9
> Cn1nnnc1SCC(=O)N1CCN(c2cccc(Cl)c2)CC1
→ -6.3, 8.3, -2.9, 22.0, 0.0, 3.8, 13.6, 3.7
> Cc1ccc(C(=O)CN(CCCC(N)=O)C(=O)c2ccncc2)cc1
→ -7.8, nt, 1.5, nt, 0.7, -0.9, nt, 2.6
> CCCN(Cc1nnc(-c2cccs2)o1)C(=O)CN1C(=O)NC2(CCCCC2C)C1=O (configuration not stated)
→ -7.7, nt, -9.5, nt, -0.8, nt, nt, 6.3
> COc1ccc(-c2nnc(N)s2)cc1
→ -1.0, nt, 4.0, nt, -1.1, -0.6, nt, 0.6
> CC(C)C(NS(=O)(=O)c1cccc2nsnc12)C(=O)Nc1nccs1 (configuration not stated)
→ -3.3, 5.4, 2.1, -2.2, 0.3, 1.3, 6.9, -3.0
> Cc1nc2nc3c(cn2n1)C(=O)CC(C)(C)C3
→ 0.5, ?, nt, 0.3, nt, 3.9, -6.4, nt
> CCCC(=O)NC(=S)Nc1cccc(Cl)c1N1CCCC1
→ 4.6, -2.5, 5.2, -2.2, 0.9, nt, 3.4, -7.1
> CC12CC(NC(=O)N1c1ccc(C(=O)N3CCN(c4ccc(F)cc4)CC3)cc1)c1ccccc1O2 (configuration not stated)
→ 4.4, -0.2, 6.4, -11.1, 0.1, 2.8, -2.5, 3.4
> c1ccc(CCc2nc(-c3ccncc3)no2)cc1
→ -4.6, 3.1, -5.1, 1.1, 0.7, -1.9, -6.8, 3.2

# 2 of the compounds above, as comma-separated lines.
Molecule,Beta2AR agonist,RanGTP-Impb inh,Beta apoptosis,Calb FLC,Bfl-1 A1 inh,UCH37 inh,T cruzi inh,LANA-H2B inh
COc1ccc(-c2nnc(N)s2)cc1,-1.0,nt,4.0,nt,-1.1,-0.6,nt,0.6
CC(C)C(NS(=O)(=O)c1cccc2nsnc12)C(=O)Nc1nccs1 (configuration not stated),-3.3,5.4,2.1,-2.2,0.3,1.3,6.9,-3.0

# Source: PubChem BioAssay
